# Assay outcomes as filed in PubChem.
# NPYLR7 ag – mosquito NPYLR7 agonism; HEK293T NPYLR7/Galpha15, GCaMP6s calcium fluorescence; activation, % at 10 µM; 0.15% of 270,000 active; AID 1259423; in the data active means activation above about 40%;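 further: 0% = vehicle and 100% = reference agonist at the receptor; some compounds past the cut are filed as inactive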
# NPYLR7 ag max-min – recorded beside NPYLR7 ag, whose call it bears; activation, %; measured here: Max-Min RFU normalised activation; some inactives read as strong as hits;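 span of the calcium signal over five minutes; 0% = vehicle and 100% = native peptide agonist; compound fluorescence can raise it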
# The depositor's hits bear a star; & = joins results of further samples.
SMILES,NPYLR7 ag,NPYLR7 ag max-min
Oc1cccc(N=Cc2nc(-c3ccc(Cl)cc3)oc2O)c1,2,-6
COc1ccc(C(=O)NCCc2c[nH]c3ccccc23)cc1Br,-4,-3
Cc1ccc(C2=NN(C(=O)CN3CCCC3)C(c3ccccc3C)C2)cc1C (configuration not stated),-10,-4
COc1ccccc1Nc1nnc(SCC(=O)N(C)C2CCCCC2)s1,1,-1
CCc1ccc(-c2ccc(C(=O)NN3CCCCC3=O)o2)cc1,-21,-23
COC(=O)C1=C(C)N(Cc2ccccc2)C(=O)NC1c1ccccc1 (configuration not stated),3,1
COCCn1c(N2CCN(c3ccccc3)CC2)nc2c1c(=O)[nH]c(=O)n2C,10,2
CCSC(C)C(=O)NCc1cccnc1Oc1ccc(C)nc1 (configuration not stated),-2,-3
O=c1nc2c(-c3cccc(Br)c3)n[nH]n2c2ccccc12,-8,-13
Cc1ccsc1CNS(=O)(=O)Cc1ccc(F)cc1,-2,-4
O=C(Nc1nnc(-c2ccc(Br)cc2)s1)C1CCCN1C(=O)C(c1ccccc1)c1ccccc1 (configuration not stated),10,17
O=C(C1Cc2cc(Cl)ccc2O1)N1CCN(C2CCS(=O)(=O)C2)CC1 (configuration not stated),-2,-1
CCOC(=O)CNC(=O)Cc1ccc(OC(CCN2CCOCC2)c2cccs2)cc1 (configuration not stated),-1,-4
CNC(=O)[C@@H]1[C@@H](c2ccccc2)CN2CCN(Cc3cc(C)no3)C[C@H]12,11,28
CCc1[nH]c2ccc(CNC(=O)CC3CCS(=O)(=O)CC3)cc2c1C,-3,-3
Cc1ccc(-c2nc(OCC(C)C)nn2-c2ccc(NC(=O)c3ccc4c(c3)OCO4)cc2)cc1,6,13
CN(Cc1ccccc1)Cc1nc2c(c(=O)n(C)c(=O)n2C)n1CCCc1ccccc1,11,4
Cc1cccc2ncnc(N[C@@H](CC(C)C)C(=O)NCCO)c12,4,5
CCOC(=O)c1nn(-c2ccccc2)c(=O)cc1OCC(=O)Nc1ccccc1C,9,7
O=C(NCc1ccc2c(c1)OCO2)c1cc(Cn2ccc3ccccc32)[nH]n1,17,7
CCOC(=O)c1ccc2c(c1)nc(SCc1c(F)c(F)c(C(F)(F)F)c(F)c1F)n2Cc1ccco1,2,0
CC1CCC(NC(=O)c2cccnc2NC(C)C)CC1 (configuration not stated),-10,-17
CC(C)c1ccc(NC2CCCN(C(=O)CCN3Cc4ccccc4C3=O)C2)cc1 (configuration not stated),-4,-7
C=CCc1ccccc1Oc1cc(OC)nc(N)n1,-13,-19
CNC(=O)CCN(C)S(=O)(=O)Cc1ccccc1C(F)(F)F,5,0

# 3 structures out of the list, arranged by heavy-atom count, smallest number first.
SMILES,NPYLR7 ag,NPYLR7 ag max-min
CC1CCC(NC(=O)c2cccnc2NC(C)C)CC1 (configuration not stated),-10,-17
COC(=O)C1=C(C)N(Cc2ccccc2)C(=O)NC1c1ccccc1 (configuration not stated),3,1
O=C(Nc1nnc(-c2ccc(Br)cc2)s1)C1CCCN1C(=O)C(c1ccccc1)c1ccccc1 (configuration not stated),10,17

# The listing picks up, starting seven compounds before the break.
SMILES,NPYLR7 ag,NPYLR7 ag max-min
CCOC(=O)c1nn(-c2ccccc2)c(=O)cc1OCC(=O)Nc1ccccc1C,9,7
O=C(NCc1ccc2c(c1)OCO2)c1cc(Cn2ccc3ccccc32)[nH]n1,17,7
CCOC(=O)c1ccc2c(c1)nc(SCc1c(F)c(F)c(C(F)(F)F)c(F)c1F)n2Cc1ccco1,2,0
CC1CCC(NC(=O)c2cccnc2NC(C)C)CC1 (configuration not stated),-10,-17
CC(C)c1ccc(NC2CCCN(C(=O)CCN3Cc4ccccc4C3=O)C2)cc1 (configuration not stated),-4,-7
C=CCc1ccccc1Oc1cc(OC)nc(N)n1,-13,-19
CNC(=O)CCN(C)S(=O)(=O)Cc1ccccc1C(F)(F)F,5,0
Cc1nc2cc(NC(=O)CCC3CCCC3)ccc2s1,-6,-11
c1coc(CNCc2ccc(N3CCCCC3)cc2)c1,0,0
O=S(=O)(c1cccc(Br)c1)N1CCc2ccccc21,4,4
Cc1ccc(-c2cn[nH]c2C2CCCN(C(=O)c3ccc(=O)[nH]n3)C2)cc1 (configuration not stated),4,4
C=CCN(Cc1nc2sc(C)c(C)c2c(=O)[nH]1)CC(C)O (configuration not stated),12,16
CC1CCCN1C(=O)c1ccc(OC(CCN2CCOCC2)c2cccs2)cc1 (configuration not stated),0,1
Cc1cc(=O)[nH]c(Sc2c(-c3ccccc3)c3cc([N+](=O)[O-])ccc3[nH]c2=O)n1,-1,-1
CCOc1ccccc1N1CCN(CC(=O)Nc2ccc3c(c2)OC(F)(F)O3)CC1,-1,-2
Cn1c(=O)c2c(SC3CCCC3)nc(-c3cccc(F)c3)nc2n(C)c1=O,-7,-8
COCCOC1CCN(Cc2ccc(Br)c(F)c2)CC1,-1,-19
Cc1cc(C)cc(NC(=O)Nc2ccc(Nc3ccc(-n4cccn4)nn3)cc2)c1,6,7
N#Cc1ccccc1N=Nc1c(-c2ccccc2)[nH]n(-c2ccc([N+](=O)[O-])cc2)c1=O,-23,-23
CCn1cc(NC(=O)NCCNC(C)=O)c2ccccc21,15,10
O=C(Nc1ccccc1)C1CCCN1C(=O)CCc1cccs1 (configuration not stated),11,4
C=CCON1C(=O)C2C3OC(C2C1=O)C1C3C2(Cl)C(Cl)=C(Cl)C1(Cl)C2(Cl)Cl (configuration not stated),0,29
CN(C)c1ccc(NC(=O)C2CCC2)cc1CN(CC1CC1)S(=O)(=O)c1ccc(F)cc1,13,17
COc1cc(-c2ccc(SCC(=O)c3ccccc3)nn2)cc(OC)c1OC,10,4
COCCNC(=O)CSc1nc(-c2ccc(Cl)cc2)nc2c1c(=O)n(C)c(=O)n2C,-3,-5
O=C(Cc1cccs1)N1C2CCC(O)(CC2)C1CO (configuration not stated),0,10
Cc1cc(C(=O)N2CCCC(C(=O)Nc3cccc(-c4ccc(F)cc4)c3)C2)n(C)n1 (configuration not stated),0,-3
CCc1ccc(NC(=O)Cn2cnc3c(nnn3Cc3ccc(C)cc3)c2=O)cc1,6,4
O=C1CCCN1CCC1CCN(C(=O)c2cn(Cc3cccc4ccccc34)nn2)CC1,-2,-6
Cc1nc(-c2ccccc2)sc1C(=O)NCCOc1ccc(-c2cccs2)nn1,-5,-5
CC(C)N(CCN1C(=O)CSC1c1ccccc1Cl)C(=O)c1ccc(F)cc1 (configuration not stated),-1,12
CCc1cc(OCC(=O)Nc2cccc(F)c2)ccc1Cl,19,15

# Look-ups from the list.
# Under NPYLR7 ag max-min, O=C(Cc1cccs1)N1C2CCC(O)(CC2)C1CO (configuration not stated) is listed with 10
# Under NPYLR7 ag, CN(C)c1ccc(NC(=O)C2CCC2)cc1CN(CC1CC1)S(=O)(=O)c1ccc(F)cc1 is listed with 13
# Under NPYLR7 ag, Cn1c(=O)c2c(SC3CCCC3)nc(-c3cccc(F)c3)nc2n(C)c1=O is listed with -7
# Under NPYLR7 ag, O=C1CCCN1CCC1CCN(C(=O)c2cn(Cc3cccc4ccccc34)nn2)CC1 is listed with -2
# Under NPYLR7 ag, CC1CCCN1C(=O)c1ccc(OC(CCN2CCOCC2)c2cccs2)cc1 (configuration not stated) is listed with 0

# Other results
SMILES,NPYLR7 ag,NPYLR7 ag max-min
O=C1OCC(CO)(CO)N=C1NNc1ccc([N+](=O)[O-])cc1,4,86
CCOc1ccccc1N1CCN(C(=O)c2csc(CSc3nnc(-c4cccc(OC)c4)n3-c3ccccc3)n2)CC1,19,19
CCCOCCn1nc(C2CCCNC2)n(CC)c1=O (configuration not stated),3,3
COCC(=O)Nc1ccc(-c2c(-c3cccc(F)c3)nn(-c3ccc(C)cc3)c2OC(C)=O)cc1,17,26
CC(C)Cn1c(CN2CCC(N3CCSCC3)CC2)cnc1S(C)(=O)=O,-2,-4
Cc1cc(C)c(C(C)Sc2nnnn2C)c(C)c1 (configuration not stated),7,4
COc1ccccc1OCC1CN(C(=O)Cc2cccc(Cl)c2)CCO1 (configuration not stated),-9,-11
O=C(NCc1ccccn1)C1CCN(S(=O)(=O)NCc2ccccc2)CC1,0,1
CCn1nc(C)c(NC(=O)CN(C)C(C)c2ccc3c(c2)OCCO3)c1C (configuration not stated),12,0
CN(C)c1ncc(CN2CCCC(CO)(Cc3cccc(Cl)c3)C2)s1 (configuration not stated),4&9,2&8
CC(C)(C)c1ccccc1SCc1ccc(C(=O)N2C3CCC2CC(Oc2ccc4c(c2)OCO4)C3)cc1 (configuration not stated),6,-1
CCCCNC(=O)C1(C)CCN1C(=O)Cc1ccc(OC)cc1 (configuration not stated),-1,-2
O=C(O)c1ccc(/C=C2/SC(=S)N(c3cccc(C(F)(F)F)c3)C2=O)cc1,2,-7
COc1ccc(NC(=O)Nc2cccc3[nH]c([C@H]4C[C@H](O)[C@@H](CO)O4)nc23)cc1OC1CCCC1,17,19
COc1ccc(CN2CC(O)CN(S(=O)(=O)c3cccs3)CC2=O)cc1 (configuration not stated),-2,-1
CC(C)c1ccc(Cc2nnc(N3CCCC3)[nH]c2=O)cc1,9,7
COc1ccc(-n2nnc3c(=O)n(CC(=O)N4CCc5ccccc54)cnc32)cc1,7,7
Cc1c(Cl)ccc2sc(N(Cc3ccccn3)C(=O)CS(=O)(=O)c3ccc(F)cc3)nc12,0,-1
Cc1nc(CNc2cccc(OCC(F)(F)F)c2)cs1,10,7
CS(=O)(=O)c1ccc(NC(=O)c2cc(F)cc(F)c2)cc1Cl,-1,-5
CCOC(=O)c1cnc(-c2ccc(C(F)(F)F)cc2)nc1NCC1COc2ccccc2O1 (configuration not stated),5,4
O=C(O)CC(C(=O)O)C1SC(=O)NC1=O (configuration not stated),15,11
O=C(Nc1ccc2c(c1)OCCO2)N1CC(=O)N2CCc3c(F)cccc3C2C1 (configuration not stated),-4,1
CCCNC(=O)CC1Sc2ccc(C(F)(F)F)cc2NC1=O (configuration not stated),1,-3
O=C(O)C1CCN(C(=O)c2ccco2)CC1,2,9

# The listing continues:
SMILES,NPYLR7 ag,NPYLR7 ag max-min
CCOC(=O)C1CCCN(C(=O)c2ccc(CSc3nc(COC)cc(N4CCOCC4)n3)cc2)C1 (configuration not stated),14,7
CNc1c(NC(=O)c2sc3ccccc3c2Cl)c(=O)oc2ccccc12,12,3
CCC(=O)N1CCN(c2ccc(-n3nc(C)c(C)c3C)nn2)CC1,-7,-13
Cc1cc(C(=O)N(CCCN(C)C)c2nc3ccc(F)cc3s2)on1,1,5
COc1cc(OC)c(C2=NOC3(CC(=O)N(c4cccc(Cl)c4)C3=O)C2)cc1OC (configuration not stated),83*,117*
O=C(NCc1ccccn1)c1cccc(OC2CCN(C(=O)Cn3cncn3)CC2)c1,10,7
Cc1ccc(C(=O)Nc2cc(NC(=O)CCN3CCCCO3)ccc2C)cc1,11,1
C[C@@]1(O)CCN(C(=O)c2ccc(=O)[nH]c2)C[C@@H]1Cc1ccccc1,3,2
Cc1cc(S(=O)(=O)N2CCN(c3cccc(C)c3C)CC2)ccc1F,5,1
COc1ccc(OC)c(N2CC(c3nc4ccccc4n3Cc3ccccc3F)CC2=O)c1 (configuration not stated),0,7
Cc1ccc(C)c2sc(N3CCN(C(=O)C4CCCCC4)CC3)nc12,8,6
Cn1c(NNC(=O)c2c(F)cccc2F)cc(=O)n(C)c1=O,0,0
COCCCN1CCC(NC(=O)c2cc(Cl)c(N)c3c2OCC3)CC1,-6&-1,-12&-6
Nc1nccnc1C(=O)N1CCCN(Cc2ccc(F)cc2)CC1,1,-1
COCCOc1cccc(C(=O)N(C)CC(O)C2CC2)c1 (configuration not stated),2,3
Cc1ccc(-n2ncc3c(=O)n(NC(=O)Cc4ccccc4)cnc32)cc1,-3,-2
O=C(N=Nc1c(O)[nH]c2ccc(Br)cc12)C1COc2ccccc2O1 (configuration not stated),-4,-6
CCOCCSc1c(CC)cnc2c1c(=O)n(C)c(=O)n2C,3,8
COc1ccc(CC(=O)N2C(=Nc3cc(C)ccc3OC)SCC2(C)C)cc1,-8,-12
O=C(c1cncc(N2[C@H]3CCNC[C@@H]2CC3)n1)N1CCCCC1,-4,-6
COc1ccc(NC(=O)c2ccc(CSc3nnc(Cc4ccccc4)n3-c3ccccc3F)cc2)cc1,8,24
COc1cc(COC2CCCN(C(=O)c3ccc(Cl)cc3Cl)C2)cc(OC)c1 (configuration not stated),-2,5
Cc1ccc(C(=O)NC(C(=O)NCc2ccco2)C2CCN(C(=O)c3cccs3)CC2)cc1 (configuration not stated),1,0
COc1ccccc1N1CCN(C(=O)Cc2c(C)nc(SCc3ccccc3)[nH]c2=O)CC1,-8,-17
CCOC(=O)c1cnc2cc(C(F)(F)F)ccc2c1Nc1ccc(N(C)C)cc1,1,3

# Going on with the list:
SMILES,NPYLR7 ag,NPYLR7 ag max-min
COc1cc(NC(=O)CCC2CCCC2)cc(-n2cnnn2)c1,9,5
O=S(=O)(c1c(F)cccc1F)N1CCN(C2c3ccccc3CCc3ccccc32)CC1,1,-1
CC(C)Cn1cnc(S(=O)(=O)Nc2ccc3[nH]ncc3c2)c1,1,0
Cc1ccc(-n2nnc3c(=O)n(CC(=O)OCc4ccccc4)cnc32)cc1,9,11
Cc1noc(C)c1C(=O)N1CCC1(C)C(=O)NS(=O)(=O)c1cccc(OC(F)F)c1 (configuration not stated),3,3
CCCNCC(=O)Nc1cc(-c2ccccc2)nn1-c1ccc(C)cc1,14,13
Cc1cnc(NCc2ccccc2CN(C)C)nc1N(C)C,-3,1
O=c1cc(-c2ccccc2Cl)nc(-c2cccc(CN3CCCNCC3)c2)[nH]1,10,2
COc1ccccc1CNC(=O)CN1CCCC1c1ccccc1C (configuration not stated),-3,-2
CCOc1ccc(NC(=O)CC(C)O)cc1 (configuration not stated),-4,-9
O=C1CCC(C(=O)N2CCC(OCc3ccccc3)CC2)CN1CCN1CCOCC1 (configuration not stated),2,1
COc1ccc(-c2cc(C(=O)NCc3ccc4c(c3)OCO4)n3nc(C(C)(C)C)cc3n2)cc1,4,4
CCc1c2c(nc3sc(C(=O)Nc4ccccc4F)c(N)c13)CC(C)(C)CC2=O,10,13
COC(=O)C(C(=O)OC)C12C3C4C1C1C2C3C1(Br)C41OCCO1 (configuration not stated),-7,-10
Cc1nc(C(=O)N2CCC3(CC2)Nc2ccccc2NC3=O)cs1,-8,-12
Cc1ccc2nc(NC(=O)Cc3cccc4ccccc34)sc2c1,-9,-13

# The list is partial, so the mix of outcomes need not match the whole.
